# Vaccinia Venus = inhibitors of vaccinia virus (Venus reporter). Vaccinia virus Venus reporter expression, fluorescence. Potency, µM (series often up to 36.5 µM), without a hit: at the highest dose activity change, negative = inhibition, hits mostly inhibitors. hit rate 0.46% among 330,000. AID 720580; active means well fitted inhibition curve with a large enough effect; inconclusive means small, poorly fitted or top-dose-only effect; inactive means no such curve, though single readings can be large or run the other way; tested in A549 cells; further: nearly all actives have a fitted effect of over 30% in size; inactives centre near -10
# Vaccinia mCherry = vaccinia inhibition (mCherry reporter). Vaccinia virus mCherry reporter infection, fluorescence; about a quarter of the inactives have no number. Potency, µM (series often up to 36.5 µM), inactives show at the highest dose activity change, negative = inhibition, usual class: inhibitors. hit rate 0.63% among 310,000; active = well fitted inhibition curve with a large enough effect; inconclusive = small, poorly fitted or top-dose-only effect; inactive = no such curve, though single readings can be large or run the other way; tested in A549 cells; further: nearly all actives have a fitted effect of over 35% in size; inactives centre near -10
# * marks the source's active call; other numbers are inactive results; i = inactive; ? = inconclusive; . = not tested or not shown; & = joins results of further samples; [ ] = remark or other dose. On the % scale 0 is the no-effect control and ±100 the full control effect; potency means the concentration at half of the fitted maximal effect.
SMILES,Vaccinia Venus,Vaccinia mCherry
Cc1c(NC(=O)CSc2n[nH]c(=O)n2-c2ccccc2)c(=O)n(-c2ccccc2)n1C,-4%,6%
Cc1c(-c2ccccc2)c(=O)oc2c(CN3CCN(C)CC3)c(O)ccc12,-20%,-17%
COc1cc(/C=C/C=C2/CC/C(=C/C=C/c3ccc(O)c(OC)c3)C2=O)ccc1O,56%[activator],i
COc1ccc(Cl)cc1S(=O)(=O)NC(C)C(=O)NCc1ccncc1 (centres undefined),2%,-13%
Cc1cccc(S(=O)(=O)NCC2CCCO2)c1 (centres undefined),0%,-10%
NS(=O)(=O)c1cc2c(cc1Cl)NC(CSCc1ccccc1)=NS2(=O)=O,-20%&-3%,-11%
c1ccc2c(-c3nnc4n3CCCCC4)c[nH]c2c1,-12%,-22%
CC(C)N1C(=S)SC2CS(=O)(=O)C=C21 (centres undefined),-14%,.
c1ccc(C(c2nnnn2C2CCCC2)N2CCCCCC2)nc1 (centres undefined),-9%,i
CCOC(=O)Cc1cc(=O)[nH]c(=O)[nH]1,-1%,i
CCOC(=O)C1C(c2cc(OC)c(O)c(OC)c2)NC(=S)NC1(O)C(F)(F)F (centres undefined),-4%,0%
CCOc1ccc(NC(=O)COC(=O)c2cccnc2)cc1,0%,-4%
CNC(=O)C12N=CNN=C1N(C)C(=O)N2C (centres undefined),-6%,-6%
Cc1nc(NC(=O)c2ccc(-c3cc4ccccc4oc3=O)cc2)ccc1Br,-15%,-6%
CCOC(=O)c1[nH]ncc1CN1CCCC(C(=O)c2ccc(OC)c(OC)c2)C1 (centres undefined),-5%,-23%

# 5 entries already listed, ordered by heavy-atom count, descending:
SMILES,Vaccinia Venus,Vaccinia mCherry
Cc1c(NC(=O)CSc2n[nH]c(=O)n2-c2ccccc2)c(=O)n(-c2ccccc2)n1C,-4%,6%
Cc1nc(NC(=O)c2ccc(-c3cc4ccccc4oc3=O)cc2)ccc1Br,-15%,-6%
Cc1c(-c2ccccc2)c(=O)oc2c(CN3CCN(C)CC3)c(O)ccc12,-20%,-17%
c1ccc2c(-c3nnc4n3CCCCC4)c[nH]c2c1,-12%,-22%
Cc1cccc(S(=O)(=O)NCC2CCCO2)c1 (centres undefined),0%,-10%

# (more compounds)
SMILES,Vaccinia Venus,Vaccinia mCherry
Cc1ccccc1OCc1nc(-c2ccc(NC(=O)c3ccc4c(c3)OCO4)cc2)no1,?,?
CCOc1ccccc1-c1nc(-c2ccc(C)nc2OC)no1,-14%,-20%
Cc1onc(-c2c(F)cccc2Cl)c1C(=O)Oc1ccccc1,-4%,20%
O=C(C[n+]1ccncc1)c1ccc2ccccc2c1,1%,23%
Cc1nnc(N/N=C/c2cc(C)n(-c3ccc(F)cc3)c2C)n1N,?,?
Cc1ccc(OCc2cc(C(=O)N3CCc4[nH]cnc4C3c3ccccn3)no2)cc1C (centres undefined),-20%,-14%
COc1ccc(N=C/C=C2/C=C(c3ccccc3)OC(C)(C)O2)cc1,-6%,i
COc1cccc(NC(=O)COc2cccnc2[N+](=O)[O-])c1,-14%,-1%
COc1ccc(/C=N/NC(=O)c2cccnc2)cc1CN1CCN(c2ccc(F)cc2)CC1,-3%,-10%
Cc1cccc(Nc2cnn(C34CC5CC(CC(CC(=O)O)(C5)C3)C4)c(=O)c2Cl)c1,-11%,i
Cc1ccc2nc(-c3ccc(NC(=O)CN4C(=O)NC(C)(c5ccc(OC(F)F)cc5)C4=O)cc3)sc2c1 (centres undefined),?,?
O=C(O)CCCN=Cc1c(O)c2ccccc2oc1=O,-17%,-7%
COc1cc(OC)c(C(=O)Nc2ccc(S(=O)(=O)N3CCCCC3)cc2)cc1OC,-6%,-20%
COc1cc(/C=C/CN2CCC(C(=O)NC(c3ccc(F)cc3)c3ccc4ccccc4n3)CC2)ccc1OC(C)=O (centres undefined),?,?
COc1ccc(C(CNC(=O)C(C)Sc2ccccc2)N2CCOCC2)cc1 (centres undefined),-11%,i
CN=C1CN(O)C(c2ccccc2)=c2cc(Cl)ccc2=N1,-17%,-22%
Cc1cc(S(=O)(=O)Nc2ccc(C(=O)NCC(c3ccco3)N3CCCC3)cc2)ccc1F (centres undefined),-7%,0%
COc1ccc(-n2nnc3c(=O)n(CC(=O)N4CCC(Cc5ccccc5)CC4)cnc32)cc1,-19%,-13%
N#Cc1c(-c2ccccc2)nc(N2CCN(Cc3ccccc3)CC2)[nH]c1=O,-9%,-9%
O=C(OCc1nc2ccsc2c(=O)[nH]1)c1cccc(S(=O)(=O)N2CCOCC2)c1,-11%,i
CCOC(=O)[C@]12CCCC=C1N(Cc1cccc3ccccc13)C(=O)[C@H](CC(=O)NCCCCc1ccccc1)C2,?,?
COc1cccc(CNc2ccccn2)c1O,-9%,-11%
CCCCNC(=O)C1(C)CCN1C(=O)c1csnn1 (centres undefined),-1%,16%
C[C@H](N)C(=O)N[C@@H](C)C(=O)N[C@@H](Cc1ccccc1)C(=O)CCl,-11%[60.7 µM],-3%[60.7 µM]
CC(=O)NCC(=O)NC(C(=O)Nc1ccc2c(c1)OCCO2)c1ccccc1 (centres undefined),-1%,i
Cc1c(C(=O)OC(C)C)sc(NC(=O)C2CCCO2)c1C(=O)OC(C)C (centres undefined),-10%,-11%
CC1CN(CC(=O)NCCC2COc3ccccc3O2)Cc2cc(Cl)ccc2O1 (centres undefined),-3%,-7%
Cc1ccc(OCC(=O)Nc2cccnc2Cl)cc1C,-1%,-7%
O=C(CSc1nnc(-c2cccs2)n1C1CC1)NC1CCS(=O)(=O)C1 (centres undefined),-10%,-23%
CCCCCC(=O)N1CC2(CC)CN(C(=O)CCCCC)CC(CC)(C1)C2=O,-13%,-2%
O=C(NCc1ccccc1F)C(=O)NCC1OCCCN1S(=O)(=O)c1cccs1 (centres undefined),-21%,-16%
COc1cccc2c1c(NC(=O)c1cc(C)on1)nn2C,-17%,i
O=C(c1cc(-c2ccc(Cl)cc2)on1)N(Cc1cccc(F)c1)Cc1ccco1,-2%,-15%
OC[C@@H]1CN(Cc2ccccc2)C[C@H](n2cnc3c(N4CCOCC4)ncnc32)O1,-6%,i
COCCn1c(N)c(NCc2ccccc2)c(=O)n(CC(=O)Nc2cc(C)ccc2C)c1=O,1%,-17%
COc1cccc(OC)c1C(=O)Nc1ccncc1,-5%,-6%
Nc1c(C(=O)Nc2ccccc2)c2nc3ccccc3nc2n1CCCN1CCOCC1,-12%[7.34 µM],i[7.34 µM]
COc1ccc(Cn2c(=O)c3oc4ccccc4c3n(Cc3cccc(C)c3)c2=O)cc1,-9%,-3%
Cc1ccc(S(=O)(=O)N2[C@H](c3ccccc3)CC(=O)[C@@H]3CN(S(=O)(=O)c4ccccc4)[C@H](c4ccccc4)C[C@@H]32)cc1,-14%,i
C[C@H](O)C#Cc1ccc2c(c1)O[C@@H](CN(C)Cc1ccc(-c3ccccc3)cc1)[C@H](C)CN([C@@H](C)CO)S2(=O)=O,?,-23%
Cc1c(NS(=O)(=O)c2cc(C(=O)NCC3CCCO3)cc(Cl)c2Cl)c(=O)n(-c2ccccc2)n1C (centres undefined),4%,-11%
CC1CCCCN1S(=O)(=O)c1ccc(S(=O)(=O)N(CC(=O)Nc2ccccc2)Cc2cccs2)cc1 (centres undefined),-3%,-15%
O=C(CSc1ccccc1)NCCc1ccccc1,-10%,i
COc1ccc(/C=C/c2nnc(NC(=O)COc3cccc(C)c3)s2)cc1,-19%,-3%
C=CC(=O)N1C/C(=C/c2ccc(F)cc2)C(=O)/C(=C\c2ccc(F)cc2)C1,7.9µM*,?
COc1ccccc1-c1cn[nH]c(=S)n1,-9%,-10%
NC(=O)[C@H]1CC2(CC(c3cccc(NC(=O)COc4ccc(Cl)cc4)c3)=NO2)CN1C(=O)Cc1ccc([N+](=O)[O-])cc1 (some centres undefined),?,?
CCOc1ccccc1NC(=O)Nc1cccc(S(N)(=O)=O)c1,3%,i
CC12CCC(=O)C=C1CCC1C2C(O)CC2(C)C1CCC2(O)C(=O)COC(=O)COCC(=O)O (centres undefined),-1%,i
Cc1cc(C(C)(C)C)cc(S(=O)(=O)Nc2cccc(C(=O)O)c2)c1C,-3%,-16%
COC(=O)C(C)n1cnc2c(cnn2-c2ccc(Cl)cc2)c1=O (centres undefined),-18%,.
O=C1CCCc2oc3c(cc(NS(=O)(=O)c4ccc5c6c(cccc46)C(=O)N5)c4ccccc43)c21,-22%,?
Cc1cc(C)c2c(=O)n3c(nc2c1)C(Cc1ccc(O)cc1)NC(=O)c1cc2ccccc2cc1-3 (centres undefined),?,-19%
CCN(c1ccccc1)S(=O)(=O)c1ccc2c(c1)CC(C)N2C(=O)C1CC1 (centres undefined),-23%,-6%
CC1(c2nnc(-c3cccc(Cl)c3)o2)CC(c2ccc(Cl)cc2)=NO1 (centres undefined),2%,-13%
C/C(=N/NC(=O)CNc1ccc(C)cc1)c1ccc(Br)s1,-15%,i
CCOc1ccccc1NC(=O)C1CCN(S(=O)(=O)c2ccc(Br)cc2)CC1,-9%,-11%
Cc1ccc(/C=C2\SC(N3CCN(C(c4ccccc4)c4ccccc4)CC3)=NC2=O)o1,-19%,?
N#Cc1ccccc1S(=O)(=O)N1CCC(C(=O)Nc2cccc(C(=O)NC3CC3)c2)CC1,-11%,-15%
Cc1ccccc1C(=O)Nn1cnnc1,-12%,i

# In another format: results already given.
> CCOc1ccccc1NC(=O)C1CCN(S(=O)(=O)c2ccc(Br)cc2)CC1
  Vaccinia Venus: -9%	Vaccinia mCherry: -11%

> Cc1ccccc1C(=O)Nn1cnnc1
  Vaccinia Venus: -12%	Vaccinia mCherry: i

> COc1ccccc1-c1cn[nH]c(=S)n1
  Vaccinia Venus: -9%	Vaccinia mCherry: -10%

> Cc1cc(C(C)(C)C)cc(S(=O)(=O)Nc2cccc(C(=O)O)c2)c1C
  Vaccinia Venus: -3%	Vaccinia mCherry: -16%

# Going on with the list.
SMILES,Vaccinia Venus,Vaccinia mCherry
Cc1ccc(C2=NN(C(=O)CN3C(=O)c4ccccc4S3(=O)=O)C(c3ccco3)C2)cc1 (centres undefined),-15%,-2%
CC(C)C[C@H]1CN(CCCC[C@H]2CNC(=O)C(=O)N2CC2CCCCC2)C(=O)C(=O)N1Cc1ccccc1,1%,-11%
CCc1cc(CNC(=O)c2cccc(OC3CCN(S(C)(=O)=O)CC3)c2)on1,-15%,-18%
COc1ccccc1-n1c(SCC(N)=O)nnc1-c1ccccc1,-17%,-10%
COC(=O)c1ccc2nc(NC(=O)CCS(=O)(=O)c3ccccc3)sc2c1,-24%,-26%
COc1ccccc1C(=O)Nc1c(C(=O)Nc2ccccc2F)oc2ccccc12,-15%,-17%
CCOc1ccc(NC(=O)c2ccccc2NC(=O)CN(C)CC(=O)Nc2ccc(C)cc2)cc1,-19%,.
O=C1c2ccc(-c3nc4ccccc4o3)cc2C(=O)N1Cc1cccnc1,-1%,-15%
Cc1cccc(NC(=O)c2c(NC(=O)c3ccco3)sc3c2CCC(C)C3)c1 (centres undefined),-6%,-3%
C=C1[C@@H](O)[C@H](Cc2ccccc2)N(Cc2ccccc2Br)S1(=O)=O,10µM*,10µM*
O=C(O)CCC(=O)NNC(=O)c1cccc(Cl)c1,-7%,?
COc1ccc(/C=N/NC(=O)c2ccc(Br)cc2)cc1CN1CCOCC1,-7%[7.34 µM],i[7.34 µM]
CC(=O)NC12CC3CC(C1)CC(C(=O)Nc1nccs1)(C3)C2,-4%,.
O=C(c1cc(-c2ccc(Cl)cc2)on1)N1CCN(c2ccc(F)cc2)CC1,-3%,-4%
O=C(CC1NCCNC1=O)Nc1cccc(F)c1 (centres undefined),-5%,-13%
COc1ccccc1Nc1c2c(nc3ccc(NC(=O)c4cccc(F)c4)cc13)CCCC2,?,11µM*
O=S1(=O)N=C(Nc2nc3c(s2)CCCC3)c2ccccc21,-23%,-18%
CO[C@H]1[C@H](NC(=O)c2ccncc2)c2ccccc2C12CCN(C(=O)c1ccoc1)CC2,6%,-6%
COCCCN1C(=O)C(=O)/C(=C(/O)c2ccc(OC)cc2)C1c1ccc(O)c(OC)c1 (centres undefined),-7%,.
Cc1ccc(N2C(=N)SCC2=O)cc1Cl,-2%,-14%
O=C(CSc1nnc(CNc2ccc(F)cc2)o1)c1ccccc1,-16%,-27%
CC(=O)NC(CC(=O)OC(C)C(=O)Nc1ncc(Cl)cc1Cl)c1ccccc1 (centres undefined),-9%,-14%
CC(C)(C)N(Cc1ccccc1)C(=O)COC(=O)CSc1ccc([N+](=O)[O-])cc1,-12%,-3%
CCCc1nc(SCC(=O)NC2CC2)c2c(C)c(C)sc2n1,-14%,i
Cc1oc(C)c(C(=O)O)c1COc1ccc(C(=O)O)cc1,-3%,-15%
COc1cccc(/C=N/NC(=O)CCc2n[nH]c(=O)[nH]c2=O)c1O,-7%,-5%
COc1ccc(CCNC(=O)c2cc(=O)c3cc(C)ccc3o2)cc1,-4%,-6%
CCC(C)C1N=C(c2ccccc2)c2cc(Cl)ccc2N(CC(=O)NCc2ccco2)C1=O (centres undefined),-27%,i
COc1ccccc1C(CNC(=O)C(C)(C)Oc1ccc(Cl)cc1)N1CCCC1 (centres undefined),-24%,-10%

# High-throughput results from PubChem BioAssay.
